Bioassay records deposited in PubChem BioAssay by National Center for Advancing Translational Sciences (NCATS).
miR-21 FLuc: qHTS Assay for Modulators of miRNAs and/orActivators of miR-21. Potency, µM (titrated, usually from 38.3 µM), for the others: at the top dose reporter change, positive = more light. 340,000 tested, under 10 active. HeLa miR-21 FLuc reporter, luciferase, 48 h. AID 2288, 2010; active = well fitted rising curve with a large enough effect; inconclusive = small, poorly fitted or top-dose-only effect; inactive = no such curve, though single readings can be large or run the other way;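 note: % of control where 0% means no effect; miR-21 action dims this reporter so a rising signal means less miR-21 action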
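Luminescence from a firefly luciferase reporter carrying a miR-21 binding site downstream, stably expressed under a CMV promoter in HeLa cells that make miR-21 endogenously, reports miRNA modulation after 48 h compound exposure up to approximately 40uM final.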
Starred values were filed as active, the others as inactive; ? = inconclusive. A portion of the library; count on the stated rates, not on these rows.

SMILES	miR-21 FLuc
Cc1nn(CCCC(=O)NCc2cccc(Cl)c2)c(=O)c2c1sc1ccccc12	-34.9%
Cc1ccccc1CNC(=O)CCc1cn(Cc2ccccc2C)c2ccccc12	3.2%
Cc1cc(C)cc(NC(=O)C2CCN(S(=O)(=O)c3cccc(-c4noc(C)n4)c3)CC2)c1	?
Cc1cccc(NC(=O)NCc2ccc3c(c2)OCO3)c1	-52.0%
CCN1C(C(=O)c2ccccc2)=C(OC(=O)c2ccc(OC)cc2)c2ccccc2S1(=O)=O	?
CCOc1ccccc1NC(=O)CSc1ncc2c(n1)-c1ccccc1N(CC)S2(=O)=O	0.9%
COc1ccccc1Cn1c(CNS(=O)(=O)c2ccc(C(C)C)cc2)nc2cccnc21	-0.8%
COCCNC(=O)Cn1c(=O)n(CCCCCC(=O)NCc2ccccc2Cl)c(=O)c2sccc21	-8.2%
Cc1c(CC(=O)N2CCCCC2)c(=O)oc2c(C)c(O)ccc12	-11.5%
CCOc1ccc(CNC(=O)Nc2ccc3c(c2)N(C)C(=O)c2ccccc2S3)cc1	-26.4%
Cc1ccc(-c2cn3nc(N4CCCC(C(=O)NCc5ccccc5F)C4)sc3n2)cc1 (stereo not drawn)	3.2%
COc1cc(-c2noc(C3CC(=O)N(c4cc(C)ccc4C)C3)n2)cc(OC)c1OC (stereo not drawn)	5.2%

Molecules shown so far that contain sulfur, in the order listed:
SMILES	miR-21 FLuc
Cc1nn(CCCC(=O)NCc2cccc(Cl)c2)c(=O)c2c1sc1ccccc12	-34.9%
Cc1cc(C)cc(NC(=O)C2CCN(S(=O)(=O)c3cccc(-c4noc(C)n4)c3)CC2)c1	?
CCN1C(C(=O)c2ccccc2)=C(OC(=O)c2ccc(OC)cc2)c2ccccc2S1(=O)=O	?
CCOc1ccccc1NC(=O)CSc1ncc2c(n1)-c1ccccc1N(CC)S2(=O)=O	0.9%
COc1ccccc1Cn1c(CNS(=O)(=O)c2ccc(C(C)C)cc2)nc2cccnc21	-0.8%
COCCNC(=O)Cn1c(=O)n(CCCCCC(=O)NCc2ccccc2Cl)c(=O)c2sccc21	-8.2%
CCOc1ccc(CNC(=O)Nc2ccc3c(c2)N(C)C(=O)c2ccccc2S3)cc1	-26.4%
Cc1ccc(-c2cn3nc(N4CCCC(C(=O)NCc5ccccc5F)C4)sc3n2)cc1 (stereo not drawn)	3.2%

Following part
SMILES	miR-21 FLuc
Cc1ccc(C(=O)N2c3nc(-c4ccco4)nn3C3(CCCCC3)[C@@H]3CCCC[C@@H]32)cc1	1.8%
Cc1nc2scc(C)n2c(=O)c1S(=O)(=O)Nc1cccc(O)c1	-0.5%
CCOc1ccc(Nc2sc(C(=O)c3cccc(OC)c3)c(N)c2S(=O)(=O)c2ccccc2)cc1	-4.4%
COc1ccccc1-n1c(=O)n(C)c2c(C(N)=O)nc(-c3cc(OC)c(OC)c(OC)c3)nc21	4.3%
COc1ccc(CN(C)c2ccc(-c3nc(-c4ccc(OC)c(OC)c4)no3)cc2[N+](=O)[O-])cc1	3.6%
Cc1ccccc1CNC(=O)C1=Cc2ccccc2OC1	-20.2%
COc1ccc(N2CCN(C(=O)c3ccc4c(c3)N(Cc3cc(C)ccc3C)C(=O)c3ccccc3S4=O)CC2)cc1 (stereo not drawn)	9.7%
O=C(NCC(c1cccnc1)N1CCN(Cc2ccccc2)CC1)C(=O)Nc1ccc(Cl)cc1 (stereo not drawn)	-14.7%
O=C(COc1ccc(Cl)cc1)Nc1ccc2nc(SCC(=O)N3CCOCC3)sc2c1	5.5%
COc1ccc(Nc2nn3c(=O)c4cc5c(cc4nc3s2)OCO5)c(OC)c1	2.9%
COc1cccc(NC(=O)CCc2c(C)nc3ncnn3c2C)c1	-0.9%
COc1ccc(-c2noc(CNC(=O)c3ccc(OC)cc3OC)n2)cc1	-5.4%
COc1cc(-c2nc3ccc(C)cn3c2Nc2ccc(Cl)cc2)ccc1O	17.2%
CCOc1cccc2sc(N3CCN(C(=O)c4ccc5c(c4)CCCC5)CC3)nc12	6.7%
COc1cccc(CNC(=O)c2[nH]c3cc(C)ccc3c2Sc2ccccc2)c1	-1.2%
COc1cc(-n2c(=O)c3ccccc3n(Cc3cccc(Cl)c3)c2=O)cc(OC)c1OC	-7.7%
O=C(NCCCN1CCN(c2ccc(F)cc2)CC1)c1ccc2nc(Cc3ccccc3)oc2c1	?
COc1ccc(CN2CCc3nc(Nc4ccccc4)ncc3C2)c(OC)c1OC	?
Cc1cccn2c(=O)cc(COc3cccc(NC(=O)Nc4cccc(Cl)c4)c3)nc12	-5.5%
COc1ccc(OCCCn2c(C3CC(=O)N(c4ccc(F)cc4)C3)nc3ccccc32)cc1 (stereo not drawn)	?
Cc1ccc(-c2csc(=Nc3ccc(F)cc3)n2Cc2ccc3c(c2)OCO3)cc1C	21.4%
CN(C)c1ccc(Nc2ncnc3sc4c(c23)CCCC4)cc1	-50.6%
COC(=O)c1sc2cccc(F)c2c1S(=O)(=O)NCc1ccc(F)cc1	-1.8%
COc1ccc(NC(=O)Cn2cc(C(=O)c3ccc(C)c(C)c3)c(=O)c3cc(OC)ccc32)cc1	7.3%
Cc1cc(C)cc(S(=O)(=O)Nc2cccc(-c3ccc(N4CCOCC4)nn3)c2)c1	0.2%
COc1ccccc1N1CCN(C(=O)CN2C(=O)COc3ccc(S(=O)(=O)N4CCOCC4)cc32)CC1	1.6%
Cc1c(C(=O)Nc2cccc(F)c2)sc2nc(-c3cc4ccccc4oc3=O)[nH]c(=O)c12	2.4%
CCOc1ccc(N(C)S(=O)(=O)c2ccc3c(c2)CCCN3C(C)=O)cc1	5.9%
CC(C)CCn1c(=O)c2sccc2n2c(CCCC(=O)Nc3ccc(F)c(Cl)c3)nnc12	6.9%
O=C(CSc1nc(Nc2ccc(F)cc2)c2ccccc2n1)c1ccc(F)cc1	13.5%
Cc1cc2c(n1-c1ccc(C(=O)NCc3ccc(OC(C)C)cc3)cc1)CCCC2	?
O=C(Cn1c(=O)oc2ccccc21)NCc1ccc(Cl)cc1	-14.8%
Cc1cn2c(=O)cc(COC(=O)c3ccc(NC(=O)COc4ccc(C)c(C)c4)cc3)nc2s1	0.3%
COc1ccc(CCC(=O)NCc2nc3cccnc3n2Cc2ccccc2)cc1	-0.9%
CCOC(=O)c1c(NC(=O)CCCOc2ccc(C(C)(C)C)cc2)sc2c1CCC2	-0.9%
CNC(=O)CN1C(=O)c2cccnc2Sc2ccccc21	-1.6%
COc1ccc(-n2c(=O)c3ccccc3n(CC(=O)NCCc3ccc(OC)c(OC)c3)c2=O)cc1	1.2%
O=C(NCC(c1ccc2c(c1)OCO2)N1CCOCC1)c1c(F)cccc1F (stereo not drawn)	-9.9%
Cc1oc(-c2ccc(C(=O)Nc3cccc(C(F)(F)F)c3)cc2)nc1CSc1ccccc1	?
COc1cc2c(C(=O)N3CCN(c4ccc(F)cc4)CC3)cn(CC(C)C)c(=O)c2cc1OC	-5.6%
Cc1nc2ccn(Cc3ccco3)c(=O)c2cc1C(=O)NCc1ccccc1	16.9%
Cc1ccc(NC(=O)Cn2ccn(Cc3ccc(Cl)cc3)c(=O)c2=O)cc1C	-1.9%
COc1ccc(S(=O)(=O)N(CCc2ccccc2)CC(=O)Nc2cc(Cl)ccc2C)cc1	21.2%
CCOCCCNC(=O)c1cnc2sc(N3CCCCC3)nn2c1=O	-4.5%
O=C(C1CCN(S(=O)(=O)c2ccc(Br)s2)CC1)N1CCN(c2ccc(F)cc2)CC1	-1.7%
COc1ccccc1C(=O)NCCSc1c(C)[nH]c2ccccc12	15.6%
COc1cc(C2C(=O)N(C3CCCCC3)CC(=O)N2C2CCCC2)ccc1OC(C)C (stereo not drawn)	-3.9%
CCOC(=O)Cn1c(=O)n(CC2CCCO2)c2nc(-c3ccccc3Cl)nc(C(N)=O)c21 (stereo not drawn)	-0.8%
COc1ccccc1C(=O)NC1(C(F)(F)F)C(=O)Nc2c1c(=O)[nH]c(=O)n2-c1ccccc1 (stereo not drawn)	1.7%
CCCS(=O)(=O)c1nc(S(=O)(=O)c2ccc(C)cc2)c(NCc2ccccc2)s1	-5.7%
CCc1ccc2oc(-c3cccc(NC(=O)c4cc5ccccc5o4)c3)nc2c1	-46.8%
COc1ccc(-c2cn3c(n2)sc2cc(C(=O)Nc4cccc(SC)c4)ccc23)cc1	21.1%
COc1cccc(C(=O)Nc2nc3nc(-c4ccccc4)cc(=O)n3[nH]2)c1	-3.8%
COc1ccc(C2c3c(-c4ccccc4)n[nH]c3C(=O)N2c2ccc(C(=O)O)cc2)c(OC)c1 (stereo not drawn)	2.4%
COc1ccc(CN(C)c2ccc(-c3nc(-c4ccccc4)no3)cc2[N+](=O)[O-])cc1	-24.2%
O=c1c2sc3ccccc3c2n(Cc2cccc(C(F)(F)F)c2)c(=O)n1Cc1ccco1	-3.9%
COc1ccccc1CNC(=O)C1CCCN(c2nn3cc(-c4ccc(F)cc4)nc3s2)C1 (stereo not drawn)	-33.6%
CC1CCC(NC(=O)c2ccc3c(c2)N(Cc2ccccc2F)C(=O)c2ccccc2S3)CC1 (stereo not drawn)	-42.8%
Cc1ccc(C)c(CN2C(=O)c3ccccc3Sc3ccc(C(=O)NCc4ccc5c(c4)OCO5)cc32)c1	4.4%
COc1ccccc1/C=C/c1nc(C#N)c(N2CCCCC2)o1	-25.5%
(more compounds)
SMILES	miR-21 FLuc
Cc1ccc2scc(N3CCN(c4ccc(F)cc4)CC3)c(=O)c2c1	-10.4%
CC(C)N1CCc2c(sc(NC(=O)c3ccc(S(=O)(=O)N(C)C4CCCCC4)cc3)c2C(N)=O)C1	14.3%
CCc1ccc(NC(=O)c2cc3c(COC(C)=O)cnc(C)c3oc2=O)cc1	-18.2%
O=C(Nc1cc(-c2nc3ccccc3o2)ccc1Cl)c1cc([N+](=O)[O-])ccc1N1CCOCC1	-26.4%
Cc1cc(C)c(NC(=O)COc2ccc3c(C)cc(=O)oc3c2)c(C)c1	-12.9%
O=C(Nc1ccccc1C(F)(F)F)C1(S(=O)(=O)c2ccc(Cl)cc2)CC1	0.4%
CCCSc1ncc(Cl)c(C(=O)N2CCN(c3ccc(OC)cc3)CC2)n1	-3.9%
CN(C)CCNC(=O)c1ccc2c(=O)n3c(nc2c1)CCCCC3	-11.4%
Cc1cc(NC(=O)CN2C(=O)c3cccnc3Sc3ccccc32)ccc1Br	-0.9%
Cc1ccccc1CN1C(=O)c2ccccc2Sc2ccc(C(=O)N3CCCC3)cc21	0.8%
Cc1ccc(C)c(N2CCN(C(=O)CCCCCn3c(=O)[nH]c4ccccc4c3=O)CC2)c1	25.6%
CC(C)c1ccc(-c2noc(SCC(=O)N3CCN(c4ccccc4F)CC3)n2)cc1	-3.1%
Cc1ccc(N2CC(NC(=O)c3cccs3)CC2=O)cc1 (stereo not drawn)	-1.9%
Cc1ccc(NC(=O)C2CCN(c3cc(C)nc4c(-c5ccc(Cl)cc5)c(C)nn34)CC2)c(C)c1	-0.4%
COc1ccc(NC(=O)CCn2c(-c3ccc(F)cc3)cc(C(C)=O)c2C)c(OC)c1	11.4%
COc1cc(Nc2ncc3c(n2)CCN(Cc2cc(Br)cs2)C3)cc(OC)c1	-0.1%
COc1cc(C(=O)N2CCC(c3nc4ccccc4s3)CC2)cc(OC)c1OC	-1.7%
Cc1ccccc1OCC(=O)Nc1ccc(OCc2cc(=O)n3ccsc3n2)cc1	0.5%
COc1ccc(C(=O)Nc2ccc3nc(SCC(=O)N4CCc5ccccc54)sc3c2)cc1	-19.1%
Cc1cc(C)cc(OCC(=O)Nc2ccc(-c3nc4ncccc4o3)cc2C)c1	?
CCOC(=O)N1CCc2c(sc(NCc3cccs3)c2C(=O)Nc2cc(Cl)ccc2OC)C1	5.6%
CC(C)OC(=O)c1cccc(NC(=O)Cn2nnc3sc4c(c3c2=O)CCCC4)c1	0.5%
Cc1ccc2nc(/C(C#N)=C/c3ccccc3F)[nH]c2c1	-40.4%
COc1ccc2[nH]cc(S(=O)(=O)c3ccc(C)c(C)c3)c(=O)c2c1	-0.7%

3 entries out of the list, sorted by heavy-atom count, highest first.
SMILES	miR-21 FLuc
COc1ccc(C(=O)Nc2ccc3nc(SCC(=O)N4CCc5ccccc54)sc3c2)cc1	-19.1%
COc1cc(C(=O)N2CCC(c3nc4ccccc4s3)CC2)cc(OC)c1OC	-1.7%
Cc1ccc(N2CC(NC(=O)c3cccs3)CC2=O)cc1 (stereo not drawn)	-1.9%

(more compounds)
SMILES	miR-21 FLuc
COC(=O)c1sc2ccccc2c1S(=O)(=O)N1CCN(c2ccc(C(C)=O)cc2)CC1	-6.2%
Cc1ccc(OC(=O)CSc2nnc(-c3cccs3)o2)c(C)c1	-1.8%
Cc1nc2ccc(S(=O)(=O)NCC(=O)Nc3ccc(F)cc3F)cc2s1	-7.2%
Cc1nc2c(C(=O)NCCc3ccccc3)cnn2c(C)c1Cc1c(F)cccc1Cl	1.0%
Cc1cc(C)cc(OCC(=O)NC(Cc2c[nH]c3ccccc23)C(=O)O)c1 (stereo not drawn)	-2.3%
Cc1ccc(C)c(N2C(=O)N(Cc3c(F)cccc3Cl)c3ccccc3S2(=O)=O)c1	19.2%
CCn1nc(C)c2c(-c3ccccc3)cc(=O)n(C(C)C(=O)NCCc3ccc(OC)c(OC)c3)c21 (stereo not drawn)	-5.8%
Cc1ccc(S(=O)(=O)CCC(=O)Nc2ccc(OC(F)(F)F)cc2)cc1	-0.2%
CCc1ccccc1NS(=O)(=O)c1cc(Br)cc2c1N(C(=O)C1CC1)CC2	?
COc1ccc(Cn2c(=O)c3oc4ccccc4c3n(Cc3cccc(F)c3)c2=O)cc1	-5.8%
Cc1nc(-c2ccc(S(=O)(=O)Nc3ccc(OC(F)(F)F)cc3)cc2)co1	15.4%
CCc1ccc(NC(=O)CN(Cc2ccccc2)S(=O)(=O)c2ccc3nc(C)sc3c2)cc1	4.5%
Cc1ccc(C)c(OCCCn2c(-c3ccc(Cl)cc3)nc3ccccc3c2=O)c1	3.1%
